# Assay outcomes: PubChem BioAssay, National Center for Advancing Translational Sciences (NCATS)
# miR-21 reporter: raises the signal of a miR-21 reporter; Potency, µM (titrated, usually from 38.3 µM), without a hit: top-dose reporter change, positive = more light; AID 2288; HeLa miR-21 FLuc reporter, luciferase, 48 h; 340,000 tested, under 10 active; active = well fitted rising curve with a large enough effect; inconclusive = small, poorly fitted or top-dose-only effect; inactive = no such curve, though single readings can be large or run the other way;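 also: % of control where 0% means no effect; miR-21 action dims this reporter so a rising signal means less miR-21 action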
#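 Compounds were titrated across several concentrations (up to approximately 40 uM) and incubated 48 hours with HeLa miR-21-FLuc reporter cells (miR-21 target sequence downstream of FLuc, endogenous miR-21). Readout was firefly luciferase luminescence after lytic detection reagent.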
# * marks the source's active call; other numbers are inactive results; ? = inconclusive. An excerpt; count on the stated rates, not on these rows.
Compound	miR-21 reporter
CCOCCCn1c(=N)c(C(=O)NCc2cccnc2)cc2c(=O)n3cc(C)ccc3nc21	-1%
Cc1coc2cc3oc(=O)c(CC(=O)N4CCCCC4)c(C)c3cc12	8%
Cc1nn(CCCC(=O)NCc2ccc(OC(C)C)cc2)c(=O)c2c1sc1ccccc12	-15%
CCn1c(CNC(=O)C23CC4CC(CC(C4)C2)C3)nnc1SCC(=O)Nc1ccccc1	-8%
Cc1cc(C)c(NC(=O)c2ccc3nc(C(C)C)oc3c2)c(C)c1	-1%
CCc1ccc(NS(=O)(=O)c2ccc(NC(=O)N3CCCC3)cc2)cc1	0%
CC(=O)NC(C)c1nc2ccccc2n1Cc1ccccc1Cl (stereo not drawn)	6%
O=C(Nc1ccc2oc(-c3ccc4ccccc4c3)nc2c1)c1cc(Cl)ccc1Cl	-18%
CCOc1ccc(C(=O)Oc2c(Sc3ccccc3)c(C)nn2C(C)(C)C)cc1OCC	25%
Cn1nnnc1SCCNCc1ccc(OCc2ccccc2Cl)cc1	-1%
CCN(c1ccccc1)S(=O)(=O)c1c(C)nc2scc(C)n2c1=O	0%
Cc1cc(C)c2c(CC(=O)Nc3cc(C(F)(F)F)ccc3Cl)coc2c1	2%
Cc1c(C(=O)OCc2ccccc2)[nH]c2c1C(=O)CC(c1ccc(N(C)C)cc1)C2 (stereo not drawn)	-1%
O=C(NCc1cccn1Cc1ccccc1)Nc1cccc(C(F)(F)F)c1	-1%
Cc1ccccc1NC(=O)c1sc2nc3c(cc2c1N)CN(Cc1ccccc1)CC3	6%
CN1CCN(c2ncnc3c2cnn3-c2cccc(Cl)c2)CC1	-39%
Cc1ccc2c(c1)c(=O)c(S(=O)(=O)c1ccc(C)c(C)c1)cn2CC(=O)Nc1ccccc1	0%
NS(=O)(=O)c1ccc(CCNC(=O)CCCCCn2c(=O)[nH]c3ccccc3c2=O)cc1	1%
CCCOc1ccc(NC(=O)CC2C(=O)N(c3ccc(OC)cc3)C(=O)N2CCc2ccncc2)cc1 (stereo not drawn)	5%
CCCN(C(=O)Cc1nc(-c2ccc(OC)cc2)no1)c1ccccc1C	7%
CCCc1nn2c(=O)cc(COC(=O)c3cccc(NC(=O)c4cccs4)c3)nc2s1	-2%
CCOC(=O)c1cc(S(=O)(=O)N2CCN(c3ccc(C(C)=O)cc3)CC2)[nH]n1	-1%
CCOC(=O)c1oc2c(c1C)-c1nn(Cc3c(F)cccc3Cl)cc1CC2	3%
Cc1cn(C)c(CC(=O)Nc2cccc(Cl)c2C)c1C(=O)O	0%
CCCNC(=O)c1ccc2c(c1)N=C(CCC)c1ccccc1S2	?
COc1cccc(-n2c(SCC(=O)N3CCCc4ccccc43)nc3c([nH]c4ccccc43)c2=O)c1	-3%
N#Cc1c(NC(=O)CS(=O)(=O)c2ccc(Cl)cc2)sc2c1CCCCC2	-3%
Cc1ccc(CN(C(=O)COc2ccc(Cl)cc2Cl)C2CCS(=O)(=O)C2)o1 (stereo not drawn)	-1%
CC(C)c1ccccc1NC(=O)CN(c1ccccc1)S(=O)(=O)N(C)C	-2%
CCOc1ccc(CCNC(=O)c2ccc(-c3nc(COc4ccc(C)cc4)c(C)o3)cc2)cc1	-2%
O=S(=O)(c1ccccc1)n1nc(-c2ccc(Cl)cc2)nc1NCc1ccc(F)cc1	-15%
Cc1noc2ncnc(N3CCN(c4ccccc4F)CC3)c12	11%

# Compounds shown so far with a Cl atom:
Compound	miR-21 reporter
CC(=O)NC(C)c1nc2ccccc2n1Cc1ccccc1Cl (stereo not drawn)	6%
O=C(Nc1ccc2oc(-c3ccc4ccccc4c3)nc2c1)c1cc(Cl)ccc1Cl	-18%
Cn1nnnc1SCCNCc1ccc(OCc2ccccc2Cl)cc1	-1%
Cc1cc(C)c2c(CC(=O)Nc3cc(C(F)(F)F)ccc3Cl)coc2c1	2%
CN1CCN(c2ncnc3c2cnn3-c2cccc(Cl)c2)CC1	-39%
CCOC(=O)c1oc2c(c1C)-c1nn(Cc3c(F)cccc3Cl)cc1CC2	3%
Cc1cn(C)c(CC(=O)Nc2cccc(Cl)c2C)c1C(=O)O	0%
N#Cc1c(NC(=O)CS(=O)(=O)c2ccc(Cl)cc2)sc2c1CCCCC2	-3%
Cc1ccc(CN(C(=O)COc2ccc(Cl)cc2Cl)C2CCS(=O)(=O)C2)o1 (stereo not drawn)	-1%
O=S(=O)(c1ccccc1)n1nc(-c2ccc(Cl)cc2)nc1NCc1ccc(F)cc1	-15%

# More entries.
Compound	miR-21 reporter
CCC1CN(CC(=O)NCc2cccc(Br)c2)c2ccccc2S1 (stereo not drawn)	0%
CCn1c(SCC(=O)c2ccc([N+](=O)[O-])cc2)nnc1-c1ccc(Cl)cc1	-1%
CC1CCc2c(sc3nnn(Cc4ccc(F)cc4)c(=O)c23)C1 (stereo not drawn)	-6%
CCC(=O)N1CCc2cc(S(=O)(=O)NC(C(=O)NCCc3ccc(OC)c(OC)c3)C(C)C)ccc21 (stereo not drawn)	0%
Cc1ccsc1CN(C(=O)COc1ccc(Cl)cc1)C1CCS(=O)(=O)C1 (stereo not drawn)	1%
COc1cccc(NC(CNS(=O)(=O)c2ccc(Cl)cc2)c2ccccc2)c1 (stereo not drawn)	?
O=C(CSc1cn(CC(=O)N2CCCCCC2)c2ccccc12)Nc1ccccc1F	25%
COc1ccccc1Nc1nc2ccc(Cl)cc2nc1-n1nc(C)cc1C	-18%
COCCCNC(=O)c1ccc(Cn2c(=O)c3cccn3c3cccnc32)cc1	17%
O=C(CSc1ncc2c(n1)-c1ccc(Cl)cc1N(Cc1ccccc1)S2(=O)=O)Nc1ccccc1C(F)(F)F	7%
CCc1ccc(-n2nc(C)c3c(C)cc(=O)n(CC(=O)N(CC)Cc4ccccc4)c32)cc1	-3%
COc1ccc(C(=O)O)cc1Nc1nc2ccc(C)cc2n2cnnc12	-1%
Cc1ccc2sc(N3CCN(C(=O)C4COc5ccccc5O4)CC3)nc2c1C (stereo not drawn)	-4%
CCOc1cc(C2c3c(oc4ccccc4c3=O)C(=O)N2Cc2ccc3c(c2)OCO3)ccc1O (stereo not drawn)	0%
CC1Cc2ccccc2N1S(=O)(=O)c1nnc(NC(=O)c2ccccc2)s1 (stereo not drawn)	0%
CC(CNC(=O)CCc1cn(Cc2ccccc2Cl)c2ccccc12)c1ccccc1 (stereo not drawn)	4%
Cc1oc(-c2ccc(Cl)cc2)nc1Cn1c(=O)cc(C)c2c(C)nn(-c3cccc(F)c3)c21	-4%
CCCCn1c(SCc2ccccc2C#N)nc2c(sc3ccccc32)c1=O	-1%
COC(=O)c1cc2sccc2n1CC(=O)Nc1cc(Cl)ccc1OC	25%
CCOC(=O)N1CCC(NC(=O)c2cnn(-c3cccc(C)c3)c2C2CCN(C(=O)OC(C)(C)C)CC2)CC1	3%
Cc1c(C(=O)NCc2cccc(Cl)c2)sc2ncnc(N(C)C3CCCCC3)c12	25%
COc1ccc(CCNC(=O)CCCCn2c(=O)c3ccccc3n(CC(=O)Nc3ccccc3C)c2=O)cc1OC	0%
CC(=O)c1c(C)n(-c2ccc(Cl)cc2)c2ccc(OC(=O)COc3ccccc3)cc12	1%
O=C(COc1ccccc1F)Nc1nnc(SCc2cc(=O)n3ccccc3n2)s1	-4%
Fc1ccc(-c2cc(-c3nc(-c4ccc(Cl)cc4)no3)[nH]n2)cc1	-8%
O=C(Nc1cccc(F)c1F)C1CCN(c2ncccn2)CC1	-1%
CCOC(=O)c1cc2c(=O)n3ccccc3nc2n(CCOC)c1=NC(=O)C(C)(C)Oc1ccc(Cl)cc1	-4%
COc1ccc(CCNc2nc3cc(OC)c(OC)cc3c3nc(-c4cccnc4)nn23)cc1OC	-3%
CCOc1ccc(/C=C/c2nc(C#N)c(N3CCN(CC)CC3)o2)cc1	-3%
COc1ccccc1NCc1cccn1-c1nnc(N2CCCCCC2)s1	-8%
Cc1ccc(CNC(=O)c2ccc(Cn3c(SCc4ccc(F)cc4)nc4cccnc43)cc2)o1	-9%
CCOc1cc(/C=C(\C#N)C(=O)Nc2ccc(C)cc2)ccc1OCc1cc(=O)n2nc(CC)sc2n1	-9%
COc1ccc(NC(=O)C2CCN(S(=O)(=O)c3cc(-c4noc(C)n4)ccc3C)CC2)cc1	15%
CCn1cc(C(=O)N2CCN(c3ccccc3OC)CC2)c(=O)c2cc(S(=O)(=O)N3CCC(C)CC3)ccc21	2%
CC1=C(C(=O)Nc2ccccc2)C(c2ccc(O)cc2)n2nc(-c3ccc(Cl)cc3)nc2N1 (stereo not drawn)	22%
CCc1cnc2c(c1SCC(=O)Nc1ccc(C(=O)OC)cc1)c(=O)n(C)c(=O)n2C	-1%
COc1ccc(-n2ncc3c2ncn2nc(-c4ccc(OC)c(OC)c4)nc32)cc1	-1%
Cc1cccc(C)c1NC(=O)CN1C(=O)c2cccc3cccc1c23	-13%
O=C(CCCCn1c(=O)c2ccccc2n(Cc2ccc(Cl)cc2)c1=O)NCc1ccccc1Cl	21%
O=C(CSc1nc2c([nH]c3ccccc32)c(=O)n1-c1cccc(Cl)c1)NCc1ccccc1	15%
N#C/C(=C\c1ccc(Cl)cc1Cl)c1nc(-c2cccc(Cl)c2)cs1	-2%
Cn1nnnc1SCCCNCc1cc(Br)ccc1OCc1ccccc1F	26%
Cc1ccc(S(=O)(=O)c2cn(CC(=O)Nc3ccc(Cl)cc3)c3ccc(F)cc3c2=O)cc1C	19%
COc1ccc2c(c1)CCc1c(C(=O)Nc3ccc(OC)cc3OC)noc1-2	0%
Cc1cccc(-c2nc3c4ccccc4n(Cc4cccc(Cl)c4)c(=O)n3n2)c1	-1%
Cc1cccc(CCNC(=O)C2CCC(CNS(=O)(=O)c3c(C)cc(C)cc3C)CC2)c1 (stereo not drawn)	24%
Cc1cccc(Cn2cnc3c(cnn3-c3ccc(Cl)cc3)c2=O)c1	0%
O=C1C(c2ccc(F)cc2)N(Cc2ccccc2Cl)C(=O)CN1C1CCCCC1 (stereo not drawn)	-3%
Cc1cc(C)cc(-n2ccnc2SCC(=O)Nc2ccc(C)cc2C)c1	?
O=C(NCc1ccccc1Cl)c1ccc(NC(=O)N2CCSc3ccccc32)cc1	-15%
CCOc1ccccc1CNC(=O)c1ccc(NC(=O)N2CC(C)Sc3ccccc32)cc1 (stereo not drawn)	8%
COc1ccccc1-c1cc(C(=O)Nc2sc3c(c2C#N)CCCC3)no1	-1%
Cc1ccc(NS(=O)(=O)c2ccc3[nH]c4c(c3c2)CCCCC4)cc1	11%
CCOC(=O)c1c(C)[nH]c(CCC(=O)NCc2cccc(OC)c2)c1C	-6%
Cc1cccc(C(=O)Nc2ccc3nc(SCCOc4ccccc4)sc3c2)c1	-22%
CCc1ccccc1NC(=O)CC1Sc2ccc(C(F)(F)F)cc2NC1=O (stereo not drawn)	-12%

# Carrying on.
Compound	miR-21 reporter
COc1ccc(CNC(=O)CCc2nc(-c3ccc(C)cc3)no2)c(OC)c1	4%
Cc1cc(C)cc(-n2c(SCC(=O)Nc3ccccc3F)nc3c(oc4ccccc43)c2=O)c1	8%
CCN1CCC(N(Cc2ccc(F)cc2)C(=O)Nc2ccc(C)c(F)c2)CC1	-26%
CC(=O)N1c2ccc(S(=O)(=O)NCC3CCC(C(=O)Nc4ccc(C)cc4)CC3)cc2CC1C (stereo not drawn)	24%
Cc1ccc(-c2c3c(=O)n(C)c(=O)n(C)c3c3c(C)nc4ccccc4n23)cc1	0%
CCOc1ccc(CNC(=O)CCc2cn(CC)c3ccccc23)cc1	0%
COc1ccc(-c2nc3scc(CCNS(=O)(=O)c4ccc(F)cc4F)n3n2)cc1OC	1%
CN(C)c1ccc(CNC(=O)c2cc3ccccn3n2)cc1	-40%
O=[N+]([O-])c1cc(C=Nc2cccc3c(O)cccc23)ccc1Cl	1%
COc1cccc(CNC(=O)c2nc(Cn3nc(C)c(Br)c3C)no2)c1	-5%
Cc1cc(OCCn2c(CCNC(=O)C3CCCCC3)nc3ccccc32)ccc1Cl	-1%
CCCCNC(=O)C1CCC(Cn2c(=O)c3sccc3n(CC(=O)Nc3ccccc3)c2=O)CC1 (stereo not drawn)	-6%
Cc1ccc(NC(=O)CC(C)S(=O)(=O)c2ccc3c(c2)NC(=O)CO3)c(C)c1 (stereo not drawn)	11%
Cc1nn(CCCC(=O)Nc2cc(C(F)(F)F)ccc2Cl)c(=O)c2c1sc1ccccc12	-7%
O=C(Nc1cc(Cl)ccc1Cl)c1ccc2c(c1)N(Cc1cccc(Cl)c1)C(=O)c1ccccc1S2=O (stereo not drawn)	1%
CCCCSCCCNC(=O)CN1C(=O)c2cccnc2Oc2ccc(Cl)cc21	8%
COc1cccc(NC(=O)CSc2cc(C)c3ccccc3n2)c1	18%
COc1ccc(NC(=O)c2c(C)oc3ccc(O)c(CN4CCC(C)CC4)c23)cc1Cl	?
CCC1CN(C(=O)N2CCC(C(=O)NCCc3ccc(Cl)cc3)CC2)c2ccccc2O1 (stereo not drawn)	3%
CCn1cc(S(=O)(=O)c2cccc(C)c2)c(=O)c2cc(F)c(N3CCCCC3C)cc21 (stereo not drawn)	-6%
